VACV Venus inh – qHTS for Stage-Specific Inhibitors of Vaccinia Orthopoxvirus: Venus Reporter Primary qHTS. Vaccinia virus Venus reporter expression, fluorescence. AID 720580, 2013. 330,000 tested, 0.46% active. Potency, µM (series often up to 36.5 µM), for inactives: top-dose activity change, negative = inhibition, most hits filed as inhibitors; active means well fitted inhibition curve with a large enough effect; inconclusive means small, poorly fitted or top-dose-only effect; inactive means no such curve, though single readings can be large or run the other way; tested in A549 cells; also: nearly all actives have a fitted effect of over 30% in size; inactives centre near -10
Vaccinia mCherry – qHTS for Stage-Specific Inhibitors of Vaccinia Orthopoxvirus: mCherry Reporter Primary qHTS; Vaccinia virus mCherry reporter infection, fluorescence; about a quarter of the inactives have no number; AID 720579, 2013; Potency, µM (doses to about 36.5 µM), inactives show at the top dose activity change, negative = inhibition, hits mostly inhibitors; 310,000 tested, 0.63% active; active = well fitted inhibition curve with a large enough effect; inconclusive = small, poorly fitted or top-dose-only effect; inactive = no such curve, though single readings can be large or run the other way; tested in A549 cells; also: nearly all actives have a fitted effect of over 35% in size; inactives centre near -10
* = called active by the depositor; i = inactive; ? = inconclusive; / = no result given; [ ] = another dose, or the depositor's remark. % is scaled to controls: 0 for no effect and ±100 for the full control effect; potency is read from the fitted curve at half-maximal effect. This is a random part of the collection; overall some 0.82% were active at least once.

SMILES	VACV Venus inh	Vaccinia mCherry
COc1ccc(NC(=O)CSc2nc3ccccc3c(=O)n2CCCN2CCC(C)CC2)c(OC)c1	-12%	-5%
COc1ccc(C2C(C(=O)N3CCN(c4ccccn4)CC3)CC(=O)N2c2ccc(OC)cc2)cc1 (stereo not drawn)	-17%	-14%
COC(=O)C[C@@H]1C[C@@H]2c3cc(NS(=O)(=O)c4ccccc4)ccc3O[C@@H]2[C@@H](CO)O1	-13%	i
CC(C)CCn1c(=O)c2sccc2n2c(CCCC(=O)NCc3ccc(F)cc3)nnc12	-13%	-12%
O=C(CCN1C(=O)/C(=C/c2ccccc2)SC1=S)NNC(=O)c1ccncc1	5%	i
CCOC(=O)c1cnc(SC)nc1Sc1ccc(Cl)cc1Cl	-23%	/
O=C(c1ccccc1C(=O)N1CCN(c2ccccc2F)CC1)N1CCN(c2ccccc2F)CC1	-18%	/
CCOC(=O)c1cnc2ccc(C(=O)OC)cc2c1NCCCN1CCOCC1	-12%	0%
CCCCCCCCN1C(=O)[C@H](CC(=O)NCc2ccc(C)o2)C[C@@]2(C(=O)OC)CCCCC=C12	-8%	-18%
CCOc1ccc(NC(=O)C(c2ccccn2)N(C(=O)CCl)c2ccc(OCC)cc2)cc1 (stereo not drawn)	-13%	i
O=C(CN1C(=O)NC2(CCc3ccccc32)C1=O)Nc1cccc(Cl)c1 (stereo not drawn)	-24%	i
CCOc1ccc(NC(=O)c2cnc3ccccn3c2=O)cc1	-12%	-12%
Cc1ccc(C(=O)NCCc2ccc(S(N)(=O)=O)cc2)cc1-n1cnc2cccnc21	-4%	-13%
CCOC(=O)C1CCN(S(=O)(=O)c2ccc3[nH]c4c(c3c2)CCCC4)CC1	-6%	i
O=C(NCc1cccnc1)NC1CCCCC1	-10%	i
COc1ccccc1CNC(=O)C1CC(c2ccccc2F)=NO1 (stereo not drawn)	-19%	-41%
CC(C)N(C(=O)CS(=O)(=O)c1ccc(Cl)c(Cl)c1)C(C)C	-4%	-12%
CC(C)Cn1c(N)c(C(=O)COC(=O)c2cnccn2)c(=O)n(C)c1=O	-2%	-30%
COc1ccc(/C=C/C2=CCN(Cc3ccc(OC)cc3)CC2)cc1	-16%	-29%
CCOc1ccccc1NS(=O)(=O)c1csc(C(N)=O)c1	-11%	i
Cc1ccccc1N1C(=O)C(Oc2ccc(Cl)cc2)C1CNCCCOC(C)C (stereo not drawn)	-26%	?
N#Cc1cc(-c2ccccc2)oc1NC(=O)c1ccccc1	-17%	/
C=CCOc1ccc(/C=C/C(=O)OCC(=O)NNC(=O)c2ccccc2F)cc1	-7%	-10%
Cc1cc(C)c(C)c(S(=O)(=O)N2CCN(C)CC2)c1C	-17%	i

Overlap with the part before: 4 compounds, followed by the next part.
SMILES	VACV Venus inh	Vaccinia mCherry
Cc1ccccc1N1C(=O)C(Oc2ccc(Cl)cc2)C1CNCCCOC(C)C (stereo not drawn)	-26%	?
N#Cc1cc(-c2ccccc2)oc1NC(=O)c1ccccc1	-17%	/
C=CCOc1ccc(/C=C/C(=O)OCC(=O)NNC(=O)c2ccccc2F)cc1	-7%	-10%
Cc1cc(C)c(C)c(S(=O)(=O)N2CCN(C)CC2)c1C	-17%	i
COc1cccc(NC(=O)Cc2ccccc2)c1	-7%	i
COc1ccc(-n2nc(C(=O)Nc3ccc(C)cn3)c3c4ccccc4n(C)c3c2=O)cc1	6%	6%
CCOC(=O)c1ccc(OCC2c3cc(OC)c(OC)cc3CCN2C(=O)c2ccc(S(=O)(=O)N3CCCC3)cc2)cc1 (stereo not drawn)	0%	2%
CC(=O)C1=C(O)C(=O)N(c2ccc(Br)cn2)C1c1ccccc1[N+](=O)[O-] (stereo not drawn)	-12%	i
COc1ccc(CC(=O)Nc2ccc(N3CCOCC3)cc2)cc1S(=O)(=O)N1CCOCC1	-6%	-4%
Cn1c(=O)c2c(SCC(=O)N3CCOCC3)nc(C3CC3)nc2n(C)c1=O	-1%	0%
COc1ccc(C)cc1NC(=S)N1CCN(c2ccccn2)CC1	-9%	-11%
O=C1C2C3C=CC(CO)(O3)C2C(=O)N1c1ccccc1-c1ccccc1 (stereo not drawn)	-26%	-22%
S=C(c1ccc2c(c1)OCO2)N1CCCC1	-2%	-11%[1.46 µM]
COc1ccc(C#Cc2c(-c3ccsc3)oc3ccc(-c4cc(OC)c(OC)c(OC)c4)cc23)cc1	-5%	-4%
N#CCCn1cc(/C=N/O)c(-c2ccc(-c3ccccc3)cc2)n1	?	/
Cc1c(CNC(C)c2ccccc2)c(C(=O)O)c(C)n1Cc1c(F)cccc1Cl (stereo not drawn)	-9%	-7%
O=C(NC(NC1CCS(=O)(=O)C1)C(=O)c1ccccc1)c1ccc(Cl)cc1 (stereo not drawn)	0%	-3%
COc1ccc(OCCSc2ncc(CO)n2C)cc1	-13%	-11%
O=C(Nc1ccc(F)cc1)c1ccc2nc[nH]c2c1	-12%	-8%
CN1CCC(N(C)S(=O)(=O)c2ccc(NC(=O)c3ccc(S(=O)(=O)N(C)C)cc3)cc2)CC1	-20%	-15%
COc1ccccc1N(CC(=O)NCCSCc1ccccc1)S(=O)(=O)c1ccccc1	?	-6%
COc1cccc(N2CCN(C(=S)Nc3cc(C)cc(C)c3)CC2)c1	-24%	-6%
COc1ccc(C(=O)Nc2cccc(-c3cn4ccsc4n3)c2)c(OC)c1	-8%	-14%
CCC(C)(C)c1nnc(NC(=O)C2CC(=O)N(CCc3ccc(F)cc3)C2)s1 (stereo not drawn)	10%	i
CC(=O)Nc1ccc(S(=O)(=O)N2CCC(c3nc4ccc(C)cc4[nH]3)CC2)cc1	-18%	-22%
Cc1ccc(S(=O)(=O)N(CC(=O)N2CCc3ccccc3C2)c2cccc(Cl)c2)cc1	-12%	/
CCCCOc1ccc(/C=C/C2=CC(C)(C)NC(=S)N2)cc1OCC	-17%	i
Nc1nc(N2CCN(c3ccccn3)CC2)nc2ccccc12	-16%	i
Cc1c(NC(=O)c2cccs2)cccc1-c1nc2ccccc2s1	-16%	-26%
Cn1ccnc1C(=O)c1ccc(S(=O)(=O)N2CCCC2)cc1	-5%	-2%
Cc1c(O)c(S(=O)c2ccccc2)c(=O)n(-c2ccccc2)c1-c1ccccc1 (stereo not drawn)	-10%	i
CNCc1ccccc1OCc1ccc(F)cc1	-5%	-10%
COC(=O)C1=C(c2cc3ccccc3o2)C[C@@H]2CC[C@H]1N2C(=O)N1CCCC1	-22%	i
CCCS(=O)(=O)N1CCC(C(=O)NCCCN(C)Cc2ccccc2)CC1	-10%	/
Cc1ccc(S(=O)(=O)N2CCCCC2)cc1C(=O)OCC(=O)NC(=O)NC12CC3CC(CC(C3)C1)C2	-20%	-20%
O=C(Nc1cccc(S(=O)(=O)N2CCCC2)c1)c1ccc2c(c1)OCO2	-9%	-10%
COc1ccc(-c2cc(CNc3nc(NCc4ccccc4OC)nc4ccsc34)on2)cc1	-28%	-9%
Cc1cccc(Cl)c1NC(=O)NCCCN1CCCCC1C (stereo not drawn)	-4%	27%
COc1ccc(S(=O)(=O)N2CCC(C(=O)Nc3cccc(Cl)c3)CC2)cc1OC	-28%	-22%
CCCS(=O)(=O)NC(=O)C1(C)CCCN(C(=O)c2cccs2)C1 (stereo not drawn)	4%	30%[activator]
CN1C(=O)S/C(=C\c2ccccc2OCc2ccc(C(=O)O)cc2)C1=O	-2%	-7%
CC(C)CN1CCN(Cc2ccc(C#CC(C)(C)O)cc2)CC1CCO (stereo not drawn)	-6%	-8%
Cc1cc(C)n2cc(COc3ccccc3)nc2n1	-12%	-19%
C[C@@H]1CC2C3CC=C4C[C@@H](O)CC[C@]4(C)C3CC[C@]2(C)[C@H]1O (stereo partly drawn)	-11%	i
Cc1ccc(NC(=O)C2CCN(S(=O)(=O)c3ccc4c(c3)NC(=O)C(C)S4)CC2)c(C)c1 (stereo not drawn)	-19%	i
Cc1ccc(C(=O)C(C)OC(=O)CN2C(=O)NC3(CCCC3)C2=O)cc1C (stereo not drawn)	-12%	-14%
CN(C)S(=O)(=O)c1cc(NC(=O)CN2CCN(c3ccccc3)CC2)ccc1Cl	-27%	-24%
COc1ccc([C@@H]2[C@@H]3C(=O)N(C(C)(C)C)C(=O)[C@@H]3[C@]3(Cc4ccccc4)C(=O)N(c4cccc(Br)c4)C(=O)N23)cc1	-12%	i
S=C(c1ccc(-c2ccc(Cl)c(Cl)c2)o1)N1CCOCC1	-11%	-24%
CCN1CCN(S(=O)(=O)c2ccc(Cl)c(C(=O)Nc3nnc(C)s3)c2)CC1	-1%	-9%
COc1cc(OC)cc(-c2nc3ccccc3c(=O)o2)c1	-4%	/
O=C(NOCc1ccccc1)OCc1ccccc1	-12%	-9%
COCCn1nnnc1C(C(C)C)N(Cc1cccnc1)Cc1ccccc1Cl (stereo not drawn)	-10%	/
COc1ccc(S(=O)(=O)c2c(Nc3ccc(F)cc3)sc(C(=O)c3ccc4c(c3)OCO4)c2N)cc1	-4%	-13%
Cc1nnc(SC(C)C#N)n1-c1ccccc1 (stereo not drawn)	-17%	-1%
CCn1c(SCC(=O)Nc2nc(-c3ccccc3)cs2)nnc1-c1ccccc1O	?	/
CCCC[C@@H]1C=C(C(=O)O)[C@H](c2ccc(Br)cc2)N1S(=O)(=O)c1ccc(C)cc1	-24%	-11%
Cc1cccc(C)c1NC(=O)COc1ccccc1C(=O)Nc1ccc(Br)cn1	3%	-16%
CCN(C(=O)c1ccco1)c1nc(CC(=O)Nc2ccc(Cl)cc2)cs1	-11%	-17%
CCn1c(Cc2ccccc2)nnc1SCC(=O)Nc1ccc(S(N)(=O)=O)cc1	1%	-13%
CC(NC(=O)CSc1nc(-c2ccccc2F)nc2cc(=O)[nH]n12)c1nc2ccccc2n1C (stereo not drawn)	1%	4%
Cc1ccc(COc2ccc(/C=N/NC(=O)c3nnn(-c4nonc4N)c3COc3ccc(F)cc3)cc2)cc1	-9%[7.34 µM]	i[7.34 µM]
CCn1c2ccccc2c2cc(N)ccc21	-13%	/
Cc1cccc(-c2nn(-c3ccccc3)cc2C(=O)Nc2cccc(S(=O)(=O)NC3=NCCC3)c2)c1	-20%	-9%
(more compounds)
SMILES	VACV Venus inh	Vaccinia mCherry
COC(=O)[C@@H]1CCCN1C(=O)c1c(OC)cc(=O)n2c1CCN(Cc1cc(OC)ccc1F)CC2	-1%	-6%
O=C(NCc1cccs1)c1ccc2sc([C@@H]3O[C@H](CO)[C@H](O)[C@H](O)[C@H]3O)nc2c1	0%	2%
Cc1ccc(S(=O)(=O)N(CC(=O)Nc2cccnc2)c2ccc(Br)cc2)cc1	-12%	-6%
CC(=O)Cc1nsc(NC(=O)c2ccc(-c3cc(Cl)ccc3Cl)o2)n1	-19%	?
Cc1nn2c(C)c(C(=O)N3CCN(c4ccc(Cl)cc4)CC3)cnc2c1-c1ccc(F)cc1	-15%	-7%
O=C(NCC1CC1)c1ccc2nc([C@@H]3O[C@H](CO)[C@H](O)[C@H](O)[C@H]3O)[nH]c2c1	3%	i
Cc1ccc(-n2c(C)cc(-c3csc(N)n3)c2C)cc1	13%	19%
Brc1ccc2ncnc(NCc3ccccc3)c2c1	?	/
O=S(=O)(c1ccccc1)N1c2cc(Cl)ccc2Oc2nc3ccccc3nc21	-19%	/
O=C(c1ccc2nc(Cc3cccc(Cl)c3)oc2c1)N1CCOCC1	-10%	i
O=C(NNC(=O)c1cccs1)c1ccc(Br)o1	-12%	-4%
O=C(COc1ccc(Cl)cc1Cl)Nc1nc2n(n1)C(c1ccccc1)CC(=O)N2 (stereo not drawn)	-9%	-2%

Profiles from above. Values in the order: VACV Venus inh, Vaccinia mCherry
Profile of O=C(NCc1cccs1)c1ccc2sc([C@@H]3O[C@H](CO)[C@H](O)[C@H](O)[C@H]3O)nc2c1 → 0%, 2%
Profile of O=S(=O)(c1ccccc1)N1c2cc(Cl)ccc2Oc2nc3ccccc3nc21 → -19%, /
Profile of O=C(c1ccc2nc(Cc3cccc(Cl)c3)oc2c1)N1CCOCC1 → -10%, i
Profile of CC(=O)Cc1nsc(NC(=O)c2ccc(-c3cc(Cl)ccc3Cl)o2)n1 → -19%, ?
Profile of O=C(NCC1CC1)c1ccc2nc([C@@H]3O[C@H](CO)[C@H](O)[C@H](O)[C@H]3O)[nH]c2c1 → 3%, i

(further entries)
SMILES	VACV Venus inh	Vaccinia mCherry
COc1ccccc1Cc1c(-c2ccc(C#N)cc2)nc2ccc(Br)cn12	-7%	-15%
CC(C)C(=O)Nc1ccc(C(=O)NNC(=S)NC(=O)c2cccs2)cc1	-12%	-9%
CCOc1ccc(CCNC(=O)c2cc(-c3ccccc3)c(N3CCOCC3)s2)cc1	-15%	i
CCCNC(=O)C(Cc1ccccc1C)NC(=O)c1ccc(C#N)cc1 (stereo not drawn)	-6%	i
Cc1ccc(CN2CC(C(=O)Nc3nnc(SCc4c(Cl)cccc4Cl)s3)CC2=O)cc1 (stereo not drawn)	-14%	-14%
COc1ccc(C2N3CC4(C)CN2CC(C)(C3)C4O)cc1OC (stereo not drawn)	?	?
COC(=O)c1ccc(NC(=O)CCCN2C(=O)NC(C)(C)C2=O)cc1	-12%	-4%
COc1cc(C(=O)OCC(C)=O)ccc1OCc1c(C)noc1C	?	-14%
O=C(CN1CCN(CC(=O)Nc2ccccc2Cl)CC1)Nc1ccc2c(c1)OCCO2	-16%	-18%
CCN(C(=O)COC(=O)CNS(=O)(=O)c1ccc(SC)c([N+](=O)[O-])c1)C1CCCCC1	-12%	-19%
Cc1cccc(C(=O)NCC(=O)OCC(=O)N(C)CC(=O)Nc2ccc(F)cc2)c1	-6%	-12%
CC(=O)Oc1c(C(C)C)cc(N(C(C)=O)c2ccccc2)cc1C(C)C	-22%	i
